Compound activity: PubChem BioAssay, National Center for Advancing Translational Sciences (NCATS)
Rango dissoc inh: inhibition of RanGTP-driven Rango-importin beta dissociation. actives 0.071% (n = 340,000). Biochemical FRET Rango-importin beta, RanGTP-induced dissociation. O95149+P62826. Potency, µM (doses to about 46.1 µM), for the others: at the highest dose activity change, negative = inhibition; active means falling FRET ratio curve, often poorly fitted, with flat reads before Ran was added; inconclusive means other falling curves, or compound fluorescence or quenching; inactive means flat or rising ratio curve;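 also: potency is read from the fitted curve at half-maximal effect; % of control where 0% means no effect; nearly all actives have a fitted effect of over 45% in size; -100% = wells without RanGTP and RCC1; the record marks most hits as doubtful in a second field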
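Recombinant Rango FRET biosensor (EYFP–snurportin 1 IBB–cerulean CFP10) at 0.1 uM premixed with 0.25 uM importin beta in PBS, 1 mM DTT, 0.02% Tween-20, 0.1% BSA. Compound added 5 min; RanGTP-RCC1 (0.6 uM Ran, 2 mM GTP, 0.2 uM RCC1) then triggers release, read at 45 min.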
miR-21 FLuc: raises the signal of a miR-21 reporter. HeLa miR-21 FLuc reporter, luciferase, 48 h. Potency, µM (highest dose often 38.3 µM), for the others: at the top dose reporter change, positive = more light. 340,000 tested, under 10 active; active = well fitted rising curve with a large enough effect; inconclusive = small, poorly fitted or top-dose-only effect; inactive = no such curve, though single readings can be large or run the other way;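 also: % of control where 0% means no effect; miR-21 action dims this reporter so a rising signal means less miR-21 action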
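HeLa miR-21-FLuc reporter line, endogenous miR-21; 2000 cells/well in DMEM/10% FBS; compound titration up to ~40uM final, 48 h, 37 degree Celsius; luciferase detection reagent, 15 min lysis, CCD luminescence.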
Rango-impB inh: Rango-importin beta binding inhibition. Q14974. Rango CFP/YFP FRET sensor + importin beta, 45 min. Potency, µM (titrated, usually from 92.2 µM), inactives show at the top dose inhibition of complex formation. actives 0.031% (n = 340,000). AID 540263; active = rising FRET ratio curve, often small or poorly fitted; inconclusive = mostly compound fluorescence or quenching in the first reads; inactive = flat curves in all reads;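 also: potency is read from the fitted curve at half-maximal effect; 0% = DMSO wells and 100% = buffer wells lacking importin beta; nearly all actives have a fitted effect of over 15% in size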
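FRET biosensor Rango (snurportin 1 IBB between N-terminal EYFP and C-terminal Cerulean), 50 nM in PBS/1 mM DTT/0.02% Tween-20/0.1% BSA, preincubated 5 min RT with compound; 0.125 microM importin beta added, 45 min RT, CFP/YFP FRET ratio read.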
GLA inh pH 4.5: inhibitors of human alpha-galactosidase A at pH 4.5 | 230,000 tested, under 10 active | purified enzyme, 4-MU-alpha-Gal fluorescence, pH 4.5 | P06280 | activity change, negative = inhibition, % at 105 µM; inconclusive = small, poorly fitted or top-dose-only inhibition, or a rising curve; inactive = flat fitted curve, though single readings scatter; no compound was filed as active;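 also: 0% = full activity with enzyme and -100% = basal without enzyme; dose as in the result columns while the protocol names 77 µM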
Target sequence (P06280 whole entry, looked up): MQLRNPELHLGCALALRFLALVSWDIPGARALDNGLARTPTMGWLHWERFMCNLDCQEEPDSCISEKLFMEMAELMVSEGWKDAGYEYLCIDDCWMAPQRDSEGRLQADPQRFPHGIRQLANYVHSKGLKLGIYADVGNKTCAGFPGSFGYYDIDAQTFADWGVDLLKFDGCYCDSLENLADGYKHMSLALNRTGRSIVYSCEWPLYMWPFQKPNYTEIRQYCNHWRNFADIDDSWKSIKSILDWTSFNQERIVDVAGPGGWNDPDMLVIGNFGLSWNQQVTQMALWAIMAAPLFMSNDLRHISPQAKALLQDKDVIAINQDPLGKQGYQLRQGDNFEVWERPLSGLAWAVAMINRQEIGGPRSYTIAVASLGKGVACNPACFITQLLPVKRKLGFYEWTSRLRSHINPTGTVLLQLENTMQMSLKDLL
Active calls of the source: *; ? = inconclusive; . = no result given; & = joins results of further samples. An excerpt. The share of hits here may be higher or lower than overall.

SMILES	Rango dissoc inh	miR-21 FLuc	Rango-impB inh	GLA inh pH 4.5
COc1ccc(CCC(=O)N2CCCC(Nc3ccccc3)C2)cc1OC (stereo unspecified)	11%	2%	-0.5%	.
O=C(C1=C[C@@H](c2ccccc2)C[C@@H](OCc2ccc(CO)cc2)O1)N1CCCCCCC1	2%	-2%	-0.3%	-9
O=C(N/N=C/c1ccccc1O)c1cc[n+]([O-])cc1	-1%	0%	0.0%	.
CN1CCN(Cc2nc3c(c(=O)[nH]c(=O)n3C)n2Cc2c(F)cccc2Cl)CC1	-22%	-3%	1.3%	7
CSc1cccc(NS(=O)(=O)c2cc(Br)cnc2N)c1	-4%	0%	0.2%	.
COc1ccc([C@@H](C)NC(=O)CCc2nnc(-c3cc(C)on3)o2)cc1	-16%	0%	-4.3%	1
COc1ccccc1NC(=S)N(c1ccccc1)C(C)C	25%	1%	0.6%	8
O=C(Nc1cccc(NC(=O)c2cccc(F)c2)c1)c1ccccc1	17%	-4%	-3.5%	.
Cc1ccc(-n2cc(CN3CCCN(C=O)CC3)c(-c3ccc(F)cc3)n2)cc1	0%	-20%	-0.7%	5
Cc1c(O)ccc(C(=O)CN2C(=O)c3ccccc3C2=O)c1O	10%	-5%	-0.5%	-3
COc1ccccc1N1CCN(C(=O)CN(C2CCCCC2)S(C)(=O)=O)CC1	-9%	2%	0.8%	6
O=C(Nc1ccccc1)/C(=C\c1ccco1)NC(=O)c1ccco1	2%	-6%	0.6%	.
CCOC(=O)Cc1csc(NC(=O)c2ccc(C)c(S(=O)(=O)N3CCOCC3)c2)n1	-8%	.	-1.5%	.
COCc1nnc(NC(=O)CCN2C(=O)c3ccccc3C2=O)s1	5%	-1%	1.7%	1
CCSc1ccc([C@@H]2[C@@H]3C(=O)N(CC)C(=O)[C@@H]3[C@]3(C(=O)OC)CCCCN23)cc1OC	-7%	.	3.9%	.
COc1ccc(CC(=O)N/N=C/c2c(C)n(C)c3ccccc23)cc1OC	-2%	27%	0.1%	0
CC1=C(C(=O)Nc2ccccc2)C(c2ccc(C)o2)n2c(s/c(=C/c3ccccc3)c2=O)=N1 (stereo unspecified)	-15%	3%	?	-4
CCCC(=O)Nc1nc2ccc(S(N)(=O)=O)cc2s1	-21%	-31%	-1.5%	6
CCOC(=O)CSc1nnc(NCC(=O)OC)c(=O)[nH]1	-3%	0%	1.7%	-1
CCc1cc(=O)[nH]c(SCCC(F)=C(F)F)n1	-17%	2%	2.2%	2
COc1ccccc1CNC(=O)COC(=O)c1cc(-c2ccco2)nc2ccccc12	?	-2%	?	11
COc1cccc(-c2cc(=O)[nH][nH]2)c1	1%	-1%	-0.8%	4
CN(C)S(=O)(=O)N1CCN(c2ccccc2Cl)CC1	0%	0%	-0.2%	4
CCn1c(-c2ccc3ncccc3c2)n[nH]c1=S	4%	-8%	3.5%	-13
O=C(c1noc2c1CCc1ccccc1-2)N1CCOCC1	3%	-52%	1.8%	4
COc1ccc(C(F)(F)F)cc1N/C=C\c1nnnn1-c1ccc(C)cc1	0%	-8%	-1.6%	1
Cc1ccccc1SCC(=O)Nc1cc(S(=O)(=O)N2CCOCC2)ccc1N1CCOCC1	-5%	0%	-1.9%	-3
O=C(Nc1ccc(Cl)cc1C(=O)NCC1CCCO1)c1ccc(Cl)cc1Cl (stereo unspecified)	?	-2%	-3.7%	-12
CCOC(=O)C1CCN(C(=O)c2cccnc2Cl)CC1	5%	-1%	4.0%	-3
Cc1cc(O)c(/C=N/Nc2cccc(Cl)c2)c(=O)o1	-27%	-3%	-1.5%	3
CN(CC(=O)Nc1ccc(S(=O)(=O)N2CCCC2)cc1)CC(=O)Nc1cccc(F)c1	-8%	7%	1.7%	-1
CCC/C(=N\NC(=O)c1ccc(OC)c(OC)c1)c1ccccc1	0%	15%	-0.2%	-11
O=C(COc1ccc(Br)cc1CO)N1CCCc2ccccc21	30%	-1%	-1.2%	.
CC(C)c1ccc(C2OCC(C)([N+](=O)[O-])CO2)cc1 (stereo unspecified)	1%	.	4.8%	.
Cc1occc1C(=O)Nc1cccc([N+](=O)[O-])c1C	-2%	-14%	-2.7%	7
O=C(NCCNC1CCN(Cc2ccccc2)CC1)c1cccs1	.	-7%	.	2
CCc1ccc2nc(SCC(=O)NCC3CCCO3)c(C#N)cc2c1 (stereo unspecified)	28%	-23%	2.0%	11
COc1ccccc1N(C)S(=O)(=O)c1ccc(C(=O)N(C)Cc2ccc(Cl)s2)cc1	-2%	.	-0.1%	.
CC(=O)N(Cc1cccnc1)Cc1cc2ccccc2[nH]c1=O	8%	2%	0.1%	-12
COc1ccc(CC(=O)Nc2c(C(=O)N3CCN(c4ccccc4)CC3)oc3ccccc23)cc1OC	-10%	0%&28%	-2.6%	.
COc1cccc(/C=N/NC(=O)c2cc(C34CC5CC(CC(C5)C3)C4)[nH]n2)c1	-1%	-10%	0.2%	1
O=C(CSc1nnc(-c2ccc(Br)cc2)o1)Nc1cccc2ccccc12	-9%	-48%	-1.4%	11
COc1cccc(NC(=S)NCc2ccc3c(c2)cc(C)n3C)c1	-18%	-7%	-2.0%	-9
COC(=O)c1sccc1NC(=O)c1cccc(OC)c1	-4%	-6%	2.2%	-5
CCOC(=O)C(Cc1ccccc1)C(=O)c1ccco1 (stereo unspecified)	-29%	.	-3.2%	.
Cc1ccc(-c2nnc(-c3ccccc3S(=O)(=O)Cc3ccc(Cl)cc3)o2)cc1	10%	-3%	-1.4%	-8
COc1ccc(NC(=O)COc2ccccc2C(=O)NCC(c2ccccc2)N(C)C)cc1Cl (stereo unspecified)	0%	16%	-0.5%	.
Nc1nc(-c2ccccc2)c(-c2ccc([N+](=O)[O-])cc2)s1	?	-11%	?	5
O=C(CSc1ncnc2c1nnn2Cc1ccc(F)cc1)NC1CCCC1	3%	0%	-2.7%	10
COc1ccc(NC(=O)N2CCc3ccccc3C2)cc1	-9%	-54%	-3.0%	.
O=C(Nc1ccccc1Cl)Nc1ccccc1Cl	1%	-16%	0.0%	8
CCCN1CCN(C(=O)C2CCN(c3nnc(C)c4c(C)n(-c5ccc(C)cc5)nc34)CC2)CC1	?	0%	0.1%	.
COc1ccc(S(=O)(=O)N2Cc3ccccc3CC2C(=O)N2CCOCC2)cc1OC (stereo unspecified)	7%	1%	-0.5%	-2
CC(=O)N1C(=O)N(C(C)=O)C2C1N(C(C)=O)C(=O)N2C(C)=O (stereo unspecified)	14%	-1%	-3.5%	0
COc1cccc(NC(=S)N(C)C2CCN(C)CC2)c1	-2%	-11%	-1.7%	.
CCOc1cc(/C=N\NC(=O)CN2CCOCC2)ccc1OCc1ccc(F)cc1	8%	-11%	-0.6%	0
COc1cccc(-c2c(C(=O)N/N=C/c3cccnc3)nnn2-c2nonc2N)c1	2%	-1%	-0.9%	.
Cc1cccc(OCc2nnc3n2CCCCC3)c1	13%	-17%	-0.8%	-1
O=C(Nc1c(F)cc(F)cc1Br)c1cc(-c2ccco2)on1	9%	-23%	-2.5%	-3
Cc1ccc(S(=O)(=O)Nc2c3ccccc3nc(=O)n2-c2ccccc2)cc1	11%	-6%	2.1%	23
The results go on:
SMILES	Rango dissoc inh	miR-21 FLuc	Rango-impB inh	GLA inh pH 4.5
COc1ccc(N2CCN(C(=O)CCCn3c(=O)[nH]c4ccsc4c3=O)CC2)cc1	6%	-1%	-0.5%	-10
COc1ccc(C(=O)c2coc3ccc(O)cc23)cc1	4%	-21%	2.1%	1
CC(C)(C)NC(=O)c1ccccc1NC(=O)C1CCCO1 (stereo unspecified)	?	-4%	1.4%	-23
COC(=O)C1=C(C)N(C)C(=O)NC1c1cc2c(cc1Br)OCO2 (stereo unspecified)	11%	-2%	8.7%	.
C=CCNS(=O)(=O)c1ccc(OCC(=O)OC)cc1	-6%	1%	-1.3%	0
FC(F)(F)c1ccccc1/C=N/n1c(C2CCCCC2)n[nH]c1=S	-1%	-10%	-1.0%	.
CCOc1ccc(CCNC(=O)COC(=O)/C=C/c2ccc(OC)c(OC)c2)cc1OCC	-6%	1%	8.0%	.
COc1ccc(NS(=O)(=O)c2cccc(NC(=O)c3ccc(S(=O)(=O)N4CCCCCC4)cc3)c2)cc1	0%	30%	0.2%	-3
O=C(NC(=S)NCCSc1ccccc1)c1cccnc1	25%	-36%	-1.5%	13
CCOC(=O)C1CCCN(C(=O)c2ccc(Cn3c(=S)[nH]c4cc(C(=O)OC)ccc4c3=O)cc2)C1 (stereo unspecified)	-13%	-1%	-1.1%	-4
Cc1ccc(-c2nc3ccccc3c(=O)n2CCCn2ccnc2)cc1	-8%	-10%	-5.5%	7
CCOc1ccc(-c2ccc(/C=C3/C(=N)N4C=CSC4=NC3=O)o2)c([N+](=O)[O-])c1	-15%	-13%	-4.1%	-21
C/C(=N\NC(=S)NC1CCCCC1)c1ccc(OC(F)F)cc1OC(F)F	2%	4%	2.7%	1
CCOC(=O)c1ccc(NC(=S)N2CCN(CCNC3=CC(=O)CC(C)(C)C3)CC2)cc1	2%	1%	1.3%	-3
COc1ccc(NC(=O)c2ccc(-n3cccn3)nc2)c(OC)c1	0%	-5%	-3.0%	4
CN(CCc1ccccn1)C(=S)Nc1cccc(S(=O)(=O)N(C)C)c1	12%	-1%	2.0%	.
COc1ccc(-n2c(=O)c3c4c(sc3n3cnnc23)CC(C)CC4)cc1 (stereo unspecified)	-10%	.	2.1%	.
CC(=O)N1CCC2(CC1)C/C(=N\NC(=S)Nc1ccc(C)cc1)c1cc(O)ccc1O2	-11%	-17%	-2.0%	-4
CC(C)N1CC(C(=O)Nc2nc3ccccc3s2)CC1=O (stereo unspecified)	-12%	-6%	-2.0%	-1
COc1cccc(-n2c(SCC(=O)NCc3cccs3)nc3ccccc3c2=O)c1	1%	-5%	2.8%	2

Limited to Rango-impB inh, Rango dissoc inh and GLA inh pH 4.5, for some of the entries so far:
molecule	Rango-impB inh	Rango dissoc inh	GLA inh pH 4.5
O=C(c1noc2c1CCc1ccccc1-2)N1CCOCC1	1.8%	3%	4
COc1ccc(C(F)(F)F)cc1N/C=C\c1nnnn1-c1ccc(C)cc1	-1.6%	0%	1
Cc1ccccc1SCC(=O)Nc1cc(S(=O)(=O)N2CCOCC2)ccc1N1CCOCC1	-1.9%	-5%	-3

Following part:
SMILES	Rango dissoc inh	miR-21 FLuc	Rango-impB inh	GLA inh pH 4.5
CN(C(=O)CSc1n[nH]c(=O)[nH]c1=O)c1ccccc1	-1%	.	3.8%	.
O=S(=O)(Nc1ccc(O)c2ccccc12)c1ccc(OC(F)(F)F)cc1	-2%	.	-0.3%	.
Cc1ccc(NC(=O)CS(=O)CC(=O)NCC2CCCO2)cc1 (stereo unspecified)	1%	-3%	2.0%	0
COCCn1c(-c2ccc(Cl)cc2)nc2c(c(=O)c3ccccc3n2C)c1=O	.	-3%	.	-8
Cn1ncc(N=Cc2ccccc2)c1C(N)=O	19%	-4%	-1.6%	1
COc1ccccc1-c1noc(-c2ccccc2C(=O)NCC2CCCO2)n1 (stereo unspecified)	-10%	-1%	-2.0%	.
CN1C(=O)CC(c2cn(Cc3ccccc3)c3ccccc23)C1=O (stereo unspecified)	-2%	-2%	?	-9
Cc1cccc(NS(=O)(=O)c2csc(C(N)=O)c2)c1	10%	1%	1.4%	.
Cc1cccc(C)c1N(Cc1ccccc1F)S(C)(=O)=O	19%	4%	-1.8%	3
COCC(C)n1c(SCC(=O)Nc2cc(C)on2)nc2ccccc2c1=O (stereo unspecified)	-9%	.	-0.6%	.
CC(C)Oc1ccc(C(CC(=O)O)n2cnnn2)cc1 (stereo unspecified)	1%	2%	1.1%	6

Individual results from above:
`Cc1ccc(NC(=O)CS(=O)CC(=O)NCC2CCCO2)cc1` (stereo unspecified) @ GLA inh pH 4.5 = 0
`COCCn1c(-c2ccc(Cl)cc2)nc2c(c(=O)c3ccccc3n2C)c1=O` @ miR-21 FLuc = -3%
`Cn1ncc(N=Cc2ccccc2)c1C(N)=O` @ miR-21 FLuc = -4%
`COc1ccccc1-c1noc(-c2ccccc2C(=O)NCC2CCCO2)n1` (stereo unspecified) @ Rango-impB inh = -2.0%
`CN(C(=O)CSc1n[nH]c(=O)[nH]c1=O)c1ccccc1` @ Rango dissoc inh = -1%
`Cc1cccc(NS(=O)(=O)c2csc(C(N)=O)c2)c1` @ Rango dissoc inh = 10%
